Compound activity deposited in PubChem BioAssay by National Center for Advancing Translational Sciences (NCATS).
PINK1 expr mod – A Quantitative High throughput Screen to Identify Chemical Modulators of PINK1 Expression | PINK1 immunofluorescence, high-content cytometry, 24 h | Potency, µM (top dose mostly 76.6 µM), for the others: at the top dose activation (PINK1 increase), actives largely listed as activators | 0.2% of 410,000 active | AID 624263, 2012; active = well fitted activation curve with a large enough effect; inconclusive = small, poorly fitted or top-dose-only effect; inactive = flat fitted curve, though single readings scatter; cell line not stated here;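 note: potency is the fitted concentration of half-maximal effect; % of control where 0% means no effect; nearly all actives have a fitted effect of over 65% in size; a mitochondrial uncoupler was the plate control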
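A stable cell line was treated with compounds at 5 concentrations for 24 hours, with CCCP as control. PINK1 levels and mitochondrial localization were measured by immunofluorescence with mitochondrial, cell and nuclear markers after fixation, read by laser-scanning cytometry.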
ClpP mod – qHTS Assay for Activators of ClpP. 1.9% of 340,000 active. purified B. subtilis ClpP, FRET peptide cleavage, 20 min. Potency, µM (series often up to 57.5 µM), for the others: top-dose activity change, negative = active; active = well fitted falling curve with a large enough effect; inconclusive = small, poorly fitted or top-dose-only effect; inactive = no such curve, though single readings can be large or run the other way; note: potency is the fitted concentration of half-maximal effect; the source files actives as falling curves though it sought activators and does not explain the sign; nearly all actives have a fitted effect of over 65% in size; many hits overshoot -100%
Target sequence (P80244 whole entry, looked up): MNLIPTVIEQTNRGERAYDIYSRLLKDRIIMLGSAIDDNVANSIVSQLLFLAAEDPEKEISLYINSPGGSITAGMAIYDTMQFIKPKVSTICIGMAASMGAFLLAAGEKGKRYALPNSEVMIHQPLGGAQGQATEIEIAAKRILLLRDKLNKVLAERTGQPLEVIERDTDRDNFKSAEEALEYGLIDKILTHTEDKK
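FRET quenching reversal measured ClpP activation: 10 microg/mL B. subtilis ClpP at pH 8 with the FRET-FV decapeptide, read at 430 nm after 320 nm excitation. The 20-min minus 0-min signal was scaled between DMSO/no-enzyme wells and ADEP (5.8 microM final).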
Sfp inh – qHTS Assay for Inhibitors of Bacillus subtilis Sfp phosphopantetheinyl transferase (PPTase); 4'-phosphopantetheinyl transferase ffp (Bacillus subtilis), Q9F4F7; Biochemical Sfp PPTase activity, qHTS; Potency, µM, for the others: max response, negative = inhibition, actives largely listed as inhibitors; 3.5% of 310,000 active; active = well fitted inhibition curve with a large enough effect; inconclusive = small, poorly fitted or top-dose-only effect, or another doubt; inactive = no such curve, though single readings can be large or run the other way;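 note: the enzyme is Sfp with the accession as filed and its product quenches rhodamine fluorescence; potency is the fitted concentration of half-maximal effect; 0% = enzyme reaction without inhibitor and -100% = no enzyme wells; top concentration of the series not given in the record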
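Step 1, compound plus 15 nM Sfp-PPTase, 15 min, room temperature. Step 2, add rhodamine-CoA (5 uM) and BHQ-2-YbbR (12.5 uM). Step 3, read 525/598 nm fluorescence at 0 and 30 min.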
TRPML1 inh – qHTS for Inhibitors of the Human Mucolipin Transient Receptor Potential 1 (TRPML1); Mucolipin-1 (Homo sapiens), Q9GZU1; TRPML1-inducible cells, Ca2+ dye fluorescence, FDSS; stronger effect = lower value; inhibition of EC80 agonist-evoked calcium signal; AID 624415, 2012; 0.02% of 390,000 active; activity change, negative = inhibition, % (concentration not given with the values); in the data active means activity change below about -50%; inconclusive means about -30% to -50%; inactive means above about -30%;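 note: stimulus is agonist 54-4 at its EC80 concentration; % is set by controls: 0 for no effect and ±100 for the full control effect; compound concentration not given in the record; the text of the record puts the active cut at -80%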
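Calcium fluorescence in TRPML1-DL cells induced overnight with Tet: a 110 s read after compound pin addition, then a 110 s antagonist read after challenge with 54-4 at 4 uM final (EC80).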
Menin-MLL FL inh – qHTS Assay for Inhibitors Targeting the Menin-MLL Interaction in MLL Related Leukemias: Competition With Fluorescein Labeled MLL-derived Peptide | Fluorescence polarization, fluorescein-MLL peptide displacement from menin | FP activity change, % at 61.4 µM | 290,000 tested, under 10 active; inconclusive = falling polarisation curve, or a change in total fluorescence; inactive = total fluorescence flat and polarisation flat or rising; no compound was filed as active; the % refers to the polarisation; negative = inhibition;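 note: % of control where 0% means no effect; inhibitors lower the polarisation; unlabelled MLL peptide was the positive control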
TRPV1 PAM – HTS Assay for Compounds that Act as Potentiators of the Vanilloid Receptor 1; TRPV1-expressing cells, Fluo-8 calcium influx, capsaicin EC20 potentiation; host cell line not named in the record; control for the full effect not named in the record; potentiation, % at 8.33 µM; AID 540277, 2011; 0.02% of 320,000 active; active means potentiation above 80%; inconclusive means 30% to 80%; inactive means below 30%; note: 0% is about no effect
Target sequence (Q8NER1 whole entry, looked up): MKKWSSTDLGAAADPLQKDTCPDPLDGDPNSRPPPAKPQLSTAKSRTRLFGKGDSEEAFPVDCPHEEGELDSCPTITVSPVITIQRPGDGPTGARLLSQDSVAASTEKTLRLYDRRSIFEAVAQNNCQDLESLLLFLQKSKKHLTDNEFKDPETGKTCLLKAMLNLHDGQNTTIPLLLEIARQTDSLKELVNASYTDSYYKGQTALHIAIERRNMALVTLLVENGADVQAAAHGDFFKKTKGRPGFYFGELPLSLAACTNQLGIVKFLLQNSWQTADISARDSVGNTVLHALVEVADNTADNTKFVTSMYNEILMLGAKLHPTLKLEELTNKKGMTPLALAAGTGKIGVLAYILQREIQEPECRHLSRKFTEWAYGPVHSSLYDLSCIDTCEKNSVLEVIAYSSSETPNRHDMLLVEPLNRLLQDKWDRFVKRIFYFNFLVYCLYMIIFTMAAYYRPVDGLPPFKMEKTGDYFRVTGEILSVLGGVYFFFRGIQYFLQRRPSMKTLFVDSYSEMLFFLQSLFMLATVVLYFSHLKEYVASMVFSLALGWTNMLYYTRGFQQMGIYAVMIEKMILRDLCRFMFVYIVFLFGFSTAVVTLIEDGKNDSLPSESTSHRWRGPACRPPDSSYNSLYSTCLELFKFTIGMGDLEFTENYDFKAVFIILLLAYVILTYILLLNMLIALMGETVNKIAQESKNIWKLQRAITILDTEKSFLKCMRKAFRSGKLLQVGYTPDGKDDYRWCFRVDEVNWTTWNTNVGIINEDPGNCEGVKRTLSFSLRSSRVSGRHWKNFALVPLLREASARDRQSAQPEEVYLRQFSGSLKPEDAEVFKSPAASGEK
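TRPV1-expressing cells were cultured overnight at 35.5C and loaded with Fluo-8 calcium dye for 40 to 90 min at room temperature. After a 10 s baseline, compound was added and calcium influx was read kinetically for 3 min (ex 480/em 520 nm).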
TRPML1 ag – qHTS for Agonists of the Human Mucolipin Transient Receptor Potential 1 (TRPML1). 0.12% of 410,000 active. Mucolipin-1 (Homo sapiens), Q9GZU1. TRPML1-expressing cells, Ca2+ dye fluorescence, FDSS; host cell line not named in the record; reference of the full effect not given here. activation, % (no concentration beside the values). AID 624414, 2012; in the data active = activation above about 50%; inconclusive = about 30% to 50%; inactive = below about 30%; note: 0% is about no effect; the text of the record puts the active cut at 80%
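Tetracycline-induced TRPML1-DL cells are seeded and incubated overnight before loading with a no-wash Ca2+ dye and quencher. Agonist activity is taken from the 110 s fluorescence read following compound pin-transfer on an FDSS, before EC80 54-4 challenge.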
The depositor's hits bear a star; ? = inconclusive; nt = no result given; & = joins results of further samples; [ ] = remark or other dose.

SMILES	PINK1 expr mod	ClpP mod	Sfp inh	TRPML1 inh	Menin-MLL FL inh	TRPV1 PAM	TRPML1 ag
C1=C(CCNCC2CC2)CCCC1	2.9%[38.3 µM]	0.5%	7%	-4	5.6	-2	-0.1
CCOC(=O)/C(C#N)=N\Nc1cc(Cl)ccc1OC	11%	-1.0%	20%	-7	?	-6	-1.1
Cc1ccc(S(=O)(=O)NC(=O)N2CCCC2)cc1	-0.5%	1.3%	nt	-10	nt	nt	-0.2
CCn1c(-c2cc(Br)ccc2O)n[nH]c1=S	nt	-4.4%	nt	-5	nt	nt	0.6
Clc1ccc(OCc2nc3ccccc3n2Cc2ccccc2)c(Cl)c1	7.0%	-17%	nt	10	nt	nt	1.2
N#CCc1nc2ccccc2c(=O)[nH]1	-1.9%	nt	16%	-2	3.6	1	4.4
c1ccc(OCCCc2nc(-c3ccncc3)no2)cc1	-4.7%[38.3 µM]	-2.1%	9%	7	0.6	2	0.4
COc1ccc(S(=O)(=O)NC(N)=NCCc2ccccc2OC)cc1	1.8%	nt	14%	5	-1.3	-7	0.6
NC(=O)c1cc([N+](=O)[O-])ccc1NCc1cccc2ccccc12	4.0%	0.4%	nt	4	nt	1	1.3
CC(C)CN1C(=O)c2ccc(NC(=O)c3ccccc3F)cc2C1=O	19%[38.3 µM]	32µM*	4%	10	1.3	-4	0.7
S=c1[nH]nc(Cc2noc3ccccc23)n1-c1ccccc1	0.3%	-2.7%	7%	-9	-3.5	2	-0.2
COc1ccc(C(=O)Nc2ccc3nc(SCC(=O)N(C)c4ccccc4)sc3c2)cc1	-0.7%	-19%	nt	2	nt	nt	0.1
Cc1ccc(SCC(=O)OCn2nnc3ccccc3c2=O)cc1C	-1.2%	1.6%	-1%	-5	nt	-25	0.7
S=C(Nc1cccc(Cl)c1)N1CCOCC1	3.6%[38.3 µM]	0.8%	17%	0	4.5	-3	-0.2
CN(CCc1ccccc1)C1CCCN(S(=O)(=O)CC(F)(F)F)C1 (configuration not stated)	1.4%	nt	7%	0	2.9	?	-0.1
COc1c(C)cccc1C(=O)Nc1ccc(-c2nc3ccccc3s2)c(Cl)c1	1.9%	7.9µM*	nt	12	nt	nt	0.7
COCc1cc(C)n(CC(=O)NCc2ccccc2)c(=O)c1C#N	-0.5%	4.4%	19%	-14	-0.6	10	0.3
O=S(=O)([N-]c1nc2ccccc2nc1-[n+]1ccccc1)c1ccc(Cl)cc1	2.2%	1.3%	3%	-6	-0.8	-11	-0.7
Cc1ccc2nc(N(CCCN(C)C)C(=O)c3ccc(Br)s3)sc2c1	0.2%&2.8%	20%	-1%	21&3	3.6	-3	0.8&0.5
COc1ccc(NC2=C(c3ccc(C(F)(F)F)cc3)C(=O)c3ccccc32)cc1	4.4%	-0.3%	nt	1	nt	nt	0.2
N/C(=N\OC(=O)CCCOc1ccccc1)c1ccc([N+](=O)[O-])cc1	-0.2%	nt	11%	-14	-3.6	-2	-0.9
Cc1cc(OCc2cc(C(=O)N3CCN(C)C(=O)[C@@H]3C)no2)cc(C)c1Cl	6.8%	1.0%	-10%	-2	nt	0	-0.2
CC(C)Oc1ccc(CNC(=O)CC(c2ccccc2)c2cc(Cl)ccc2O)cc1 (configuration not stated)	-0.4%[38.3 µM]	-3.5%	23%	-7	6.0	5	3.6
COc1cccc(-c2ocnc2C(=O)Nc2ccc(N3CCOCC3)cc2N2CCOCC2)c1	-1.1%	nt	-22%	6	-4.5	1	1.1
c1ccc(-n2nnc3cnccc32)cc1	-1.1%	-1.0%	1%	6	2.3	12	-0.6

Full records, looked up by structure.
COc1ccc(NC2=C(c3ccc(C(F)(F)F)cc3)C(=O)c3ccccc32)cc1 in the list: PINK1 expr mod = 4.4%; ClpP mod = -0.3%; Sfp inh = nt; TRPML1 inh = 1; Menin-MLL FL inh = nt; TRPV1 PAM = nt; TRPML1 ag = 0.2
S=c1[nH]nc(Cc2noc3ccccc23)n1-c1ccccc1 in the list: PINK1 expr mod = 0.3%; ClpP mod = -2.7%; Sfp inh = 7%; TRPML1 inh = -9; Menin-MLL FL inh = -3.5; TRPV1 PAM = 2; TRPML1 ag = -0.2
COc1ccc(S(=O)(=O)NC(N)=NCCc2ccccc2OC)cc1 in the list: PINK1 expr mod = 1.8%; ClpP mod = nt; Sfp inh = 14%; TRPML1 inh = 5; Menin-MLL FL inh = -1.3; TRPV1 PAM = -7; TRPML1 ag = 0.6

Results in Sfp inh, TRPML1 inh and TRPML1 ag, for 3 of the compounds above:
| Compound | Sfp inh | TRPML1 inh | TRPML1 ag |
| --- | --- | --- | --- |
| O=S(=O)([N-]c1nc2ccccc2nc1-[n+]1ccccc1)c1ccc(Cl)cc1 | 3% | -6 | -0.7 |
| Cc1ccc2nc(N(CCCN(C)C)C(=O)c3ccc(Br)s3)sc2c1 | -1% | 21&3 | 0.8&0.5 |
| COc1ccc(NC2=C(c3ccc(C(F)(F)F)cc3)C(=O)c3ccccc32)cc1 | nt | 1 | 0.2 |

The listing picks up, repeating the 2 entries before the break.
SMILES	PINK1 expr mod	ClpP mod	Sfp inh	TRPML1 inh	Menin-MLL FL inh	TRPV1 PAM	TRPML1 ag
COc1cccc(-c2ocnc2C(=O)Nc2ccc(N3CCOCC3)cc2N2CCOCC2)c1	-1.1%	nt	-22%	6	-4.5	1	1.1
c1ccc(-n2nnc3cnccc32)cc1	-1.1%	-1.0%	1%	6	2.3	12	-0.6
Cc1ccc(NC(=O)C2CCCN(S(=O)(=O)c3ccc(C)cc3)C2)cc1 (configuration not stated)	-0.9%	0.6%	nt	62	nt	nt	4.0
Cc1cc(C)c(OCC(=O)Nc2ccc(S(=O)(=O)N3CCCC3)cc2)c(C)c1	1.9%	0.7%	nt	32	nt	2	1.2
COc1ccccc1N(CC(=O)NC(C)(C)C)C(=O)C1CSC(=O)C1 (configuration not stated)	-0.5%	-0.7%	4%	5	0.3	26	0.2
COc1cccc(Cn2c(SCC(=O)N3CCN(c4ccc(F)cc4)CC3)nc3ccccc32)c1	9.0%	3.3%	nt	12	nt	nt	1.8
COCCn1c(=S)[nH]c2sc3c(c2c1=O)CCCC3	-0.2%	-1.1%	-27%	16	-2.8	7	5.2
COc1cccc(C(=O)NCC2(c3ccccc3)CCCC2)c1	-0.6%	nt	4%	-3	5.4	-8	-0.2
CN(C)C(CNC(=O)C1CC(=O)N(c2cccc(C(F)(F)F)c2)C1)c1ccccc1 (configuration not stated)	1.0%	-4.2%	nt	3	nt	nt	-0.4
CCOc1ccc(C(C)=O)cc1COC(=O)c1cnc(Cl)c(Cl)c1	0.7%	nt	15%	3	0.2	-5	3.1
COc1ccc(NS(=O)(=O)c2cccc3nonc23)c(OC)c1	-1.7%	-11%	-23%	-3	2.5	9	2.2
CC(NC(=O)OCc1ccccc1)C(=O)N1CC(O)CC1C(=O)O (configuration not stated)	-1.4%	0.8%	-6%	36	3.7	23	0.5
CN(C)C(=O)c1ccc(NC(=O)COC(=O)C2=COCCO2)cc1	1.3%	-2.8%	nt	-13	nt	1	0.2
O=C(O)COc1ccc(Br)cc1/C=C1/SC(=O)N(CC(=O)N2CCCC2)C1=O	-0.5%	-7.1%	-12%	-7	3.6	-8	0.5
COc1ccccc1C(=O)NC(=S)Nc1ccccc1N1CCCCC1	8.9%	-0.6%	5%	7	4.6	-1	-0.4
COc1ccc(NC(=O)COC(=O)Cn2nnc3ccccc32)cc1	-1.1%	-3.9%	0%	-7	0.6	-5	1.2
COc1cc(OC)cc(C(=O)NCC(=O)N2CCN(c3ccc(O)cc3)CC2)c1	1.8%	nt	56µM*	10	1.1	-1	0.7
CCCn1c(=O)c(C(=O)OCC)c(O)c2cc(Br)ccc21	1.9%	nt	8%	2	0.9	-15	2.0
Cc1ccccc1S(=O)Cc1ccc(C(=O)NC2CCCCCC2)o1 (configuration not stated)	1.5%	-0.5%	nt	35	nt	nt	-1.1
CC1CCCC(NC(=O)COC(=O)c2cc(S(=O)(=O)N3CCOCC3)ccc2F)C1C (configuration not stated)	-0.8%	-2.2%	nt	4	nt	0	-0.2
COc1cc2c(cc1OC)CN(CC(=O)Nc1ccc(F)cc1F)CC2	2.0%	nt	6%	2	3.2	-18	1.1
COc1ccc(-c2c(-c3ccccc3OC)sc3ccccc23)cc1C=O	4.5%	?	nt	-16	nt	2	0.7
O=C(CCN1C(=O)c2ccccc2C1=O)Nc1ccc2c(c1)OCCO2	-0.6%[38.3 µM]	-3.4%	-3%	-12	6.3	nt	-0.5
Cc1ccc2c(c1)N(S(=O)(=O)c1ccc(F)cc1)C(C(C)(C)C)CO2 (configuration not stated)	9.8%	0.2%	4%	76	-0.3	8	1.7
O=C(O)COc1ccc(/C=C/C(=O)c2ccc(C3CCCCC3)cc2)cc1	-1.7%	-9.5%	-11%	-26	-1.0	3	1.1
O=C(Cc1ccccc1)Nc1cccc([N+](=O)[O-])c1	2.3%	2.7%	23%	3	3.4	?	1.3
CN1CCN(c2ccc(NC(=S)NC(=O)c3cccc4c(Br)cccc34)cc2)CC1	2.3%	0.8%	6%	-1	0.3	15	-0.5
CCOC(=O)NC1(C(F)(F)F)NC(=O)N(Cc2ccco2)C1=O (configuration not stated)	0.8%[38.3 µM]	-0.7%	9%	11	0.6	1	1.8
CC(=NNC(=O)c1cccc(S(=O)(=O)N2CCCC2)c1)c1ccccc1	0.8%	0.7%	nt	-15	nt	nt	0.7
Cn1nnnc1SCCCNCc1cc(Cl)ccc1OCc1ccccc1	-0.3%	-0.8%	nt	8	nt	nt	-0.2
CCn1c(SCC(=O)C(C)(C)C)nnc1-c1cnccn1	?	-10%	10%	-8	1.7	-7	0.7
